Screening results (PubChem)
FGF22 binding: binders of human FGF22 protein, primary screen, FGF22 synaptogenesis inhibitor project, biophysical, thermal shift, single point; calls only at 9.99 µM; 340,000 tested, 1.5% active; Fibroblast growth factor 22 (Homo sapiens), Q9HCT0; recombinant FGF22 thermal shift, SYPRO orange fluorescence; percent of sucrose octasulfate shift, DMSO zero;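 active = melting point raised past a set limit in the mean and every replicate; inconclusive = no clear call; three in four hits are not shown here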
Target sequence (Q9HCT0 whole entry, looked up): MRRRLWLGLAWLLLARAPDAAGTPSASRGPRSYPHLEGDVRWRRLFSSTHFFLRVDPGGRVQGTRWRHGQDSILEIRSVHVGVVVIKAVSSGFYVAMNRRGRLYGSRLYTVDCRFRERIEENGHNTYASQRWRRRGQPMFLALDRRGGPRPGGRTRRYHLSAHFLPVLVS
E coli growth: E. coli growth inhibition, primary screen, OD600 | Escherichia coli growth, 23 h; active compounds read low | AID 1053175, 2014 | 330,000 tested, 0.21% active | OD600 absorbance (test concentration not listed);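 active = OD600 absorbance below the run mean of sample wells minus 3.6 SD, in any replicate, cut at about 0.56 in these data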;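 note: stock transfer was 300 nL into about 60 µL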
ALR inh: inhibitors of human ALR sulfhydryl oxidase, primary screen, biochemical, H2O2 detection, HRP-luminol luminescence, single point; 290,000 tested, 3.8% active; AID 485317, 2010; purified ALR, DTT oxidation; inhibition, % (no concentration beside the values); FAD-linked sulfhydryl oxidase ALR (Homo sapiens), P55789;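 active = mean and each replicate at 75% or more; inconclusive = only one of the two met; inactive = neither met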;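 note: stock transfer was 7.5 nL into about 7.5 µL; 0% = neutral wells and 100% = wells with inactivated enzyme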
Target sequence (P55789 whole entry, looked up): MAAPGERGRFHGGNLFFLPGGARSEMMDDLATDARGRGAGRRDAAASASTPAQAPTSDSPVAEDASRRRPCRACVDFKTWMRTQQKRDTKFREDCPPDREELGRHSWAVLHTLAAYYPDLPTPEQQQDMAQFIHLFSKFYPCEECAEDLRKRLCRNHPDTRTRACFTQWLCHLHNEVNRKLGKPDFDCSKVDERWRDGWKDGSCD
Beta2AR agonist: beta2AR agonists driving receptor internalization, primary screen, cell-based, FAP fluorogen, flow cytometry; AID 504454, 2011; Am2.2-beta2AR cells; reference of the scale not given here; Beta-2 adrenergic receptor (Homo sapiens), P07550; 340,000 tested, 0.43% active; response, % (no concentration beside the values);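 active = response above a set limit, near 3 SD of response in nonfluorescent compounds, cut at about 42% in these data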;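 note: stock transfer was 100 nL into about 11 µL; a reference agonist was the positive control; negative values mostly stem from fluorescent compounds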
UCH37 inh: inhibitors of human UCH37 deubiquitinase, primary screen, biochemical, Ub-AMC cleavage, fluorescence | purified proteasome/UCH37 | inhibition, % (concentration not given with the values) | 330,000 tested, 0.33% active;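 active = mean of two replicates above 20%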;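 note: 0% = compound-free wells with enzyme and 100% = wells lacking proteasome; stock transfer was 100 nL into about 20 µL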
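Material: Human UCH37 enzyme supplied as purified proteasome complex | Schedule: 30 min compound-proteasome preincubation then 25 min substrate reaction, room temperature | Detection: AMC fluorescence from Ub-AMC cleavage, excitation 355 nm, emission 460 nm | Benchmarks: Wells without proteasome as full block, compound-free enzyme plus substrate as uninhibited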
HNF4A DNA FP: change in binding of human HNF4A to DNA, primary screen, biochemical, fluorescence polarization, FITC-DNA; Hepatocyte nuclear factor 4-alpha (Homo sapiens), P41235; 1 h; activity change, % at 10 µM; 360,000 tested, 0.3% active; in the data active = activity change above about 30%, passing the limit was not always enough;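 note: controls were the assay level and a saturating level of protein; the project sought stronger binding though the title names inhibitors; some compounds called inactive have numbers as strong as hits; positive values seem to mean higher polarization but the record does not say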
Target sequence (P41235 whole entry, looked up): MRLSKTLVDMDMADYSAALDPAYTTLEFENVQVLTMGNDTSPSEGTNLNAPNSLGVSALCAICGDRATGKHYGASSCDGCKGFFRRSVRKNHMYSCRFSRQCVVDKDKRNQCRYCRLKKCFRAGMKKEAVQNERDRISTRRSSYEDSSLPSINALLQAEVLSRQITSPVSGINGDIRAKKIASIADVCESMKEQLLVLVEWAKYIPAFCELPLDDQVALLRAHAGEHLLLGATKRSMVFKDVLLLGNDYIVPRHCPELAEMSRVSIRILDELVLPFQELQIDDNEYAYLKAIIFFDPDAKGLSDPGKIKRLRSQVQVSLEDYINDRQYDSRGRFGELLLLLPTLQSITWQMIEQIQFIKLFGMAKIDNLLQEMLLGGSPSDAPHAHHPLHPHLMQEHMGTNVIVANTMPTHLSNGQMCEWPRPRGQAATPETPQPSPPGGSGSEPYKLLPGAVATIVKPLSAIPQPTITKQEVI
LANA-H2A inh: blockers of LANA interaction with H2A/H2B – biochemical, FP readout, HTS, primary screen | Protein LANA1 (Human herpesvirus 8 type P (isolate GK18)), Q9QR71 | cell-free LANA-H2A/H2B peptide, fluorescence polarization | inhibition, % (no concentration beside the values) | 320,000 tested, 0.6% active | AID 2629, 2010; in the data active = inhibition mostly above about 10%, no sharp cut-off; inactive = mostly below about 6.7%;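 note: stock transfer was 7.5 nL into about 10 µL; 0% = median of vehicle wells and 100% = median of positive control wells; one replicate is shown; the record names a cut of 25% in any replicate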
The depositor's hits bear a star; i = inactive; ? = inconclusive; / = not tested or not shown.

Structure	FGF22 binding	E coli growth	ALR inh	Beta2AR agonist	UCH37 inh	HNF4A DNA FP	LANA-H2A inh
CC(=O)c1ccc(N2Cc3ccccc3C3(CCOCC3)C2=N)cc1	i	0.68	-25	10	8.6	-1.1	3.7
Cc1cc(NC(=O)CN2C(=O)NC(CCc3ccccc3)C2=O)no1 (stereo unspecified)	i	0.7	-4	-6	-1.2	4.0	-2.6
CCOc1ccc(S(=O)(=O)n2cnc3cc(C)c(C)cc32)cc1	i	0.68	-1	-5	3.5	-2.9	4.4
CCN(CC)CCNCC1C(=O)O[C@@H]2C[C@@]3(C)CCC[C@H](C)C3=C[C@H]12 (stereo partly specified)	i	0.64	-22	-1	1.1	-0.5	-0.3
COC(=O)[C@]1(C)N[C@H](CN(C)C(=O)Nc2ccc(OC)cc2)[C@@H]2C(=O)N(Cc3ccccc3)C(=O)[C@@H]21	i	0.67	/	-5	3.5	0.1	2.9
CCCn1c(NC(=O)c2cccc(S(=O)(=O)N3CCCC3)c2)nc2ccccc21	/	0.72	-4	11	-11	1.1	1.9
COc1ccc(S(=O)(=O)N2CCCCC2)cc1NC(=O)CNc1ccccc1C(C)=O	i	0.64	-2	6	-6.3	-3.6	-1.4
Cc1oc(C(=O)O)cc1COc1ccc2c3c(c(=O)oc2c1)CCC3	/	0.69	32	5	-57	-11	-0.9
Cn1cccc1/C=C1\SC(=S)N(NC(=O)c2cccc(Cl)c2)C1=O	i	0.68	-3	-7	7.5	61*	i
COC(=O)c1ccc(OCCN2C3=NCCN3c3ccccc32)cc1	/	0.69	/	-4	2.9	0.4	-1.1
CN(C)CCN(CC1CCCN(Cc2ccccc2F)C1)C(=O)c1ccc(Cl)cc1 (stereo unspecified)	i	0.69	/	-2	1.7	-0.9	2.8
CCCc1cc(=O)[nH]c(SC(C)C(=O)N2c3ccccc3CC2C)n1 (stereo unspecified)	i	0.72	-2	13	3.8	0.5	-3.3
Cc1cccc(CN2CCCC(C(=O)Nc3ccccc3Oc3cccnc3)C2)c1 (stereo unspecified)	i	0.76	-2	-6	0.5	1.7	1.0
CC(=O)N(C)c1ccc(N=Nc2ccc3ncccc3c2)cc1	i	0.68	/	-13	15	0.8	/
S=c1nc(C2CCCCC2)[nH]c2ccccc12	i	0.66	-1	3	3.6	5.3	5.1
O=C(CN(C(=O)CCC(=O)Nc1ccccn1)c1ccc(F)cc1)NCc1ccc(F)cc1	i	0.71	0	-2	3.9	-2.5	3.6
CC1CCCCN1C(=O)CSc1nnc(-c2cccnc2)n1C1CCCCC1 (stereo unspecified)	/	0.69	-5	-8	0.9	-1.6	-1.8
N#Cc1c(NC(=O)c2cc([N+](=O)[O-])ccc2N2CCOCC2)sc2c1CCCC2	i	0.71	-3	-5	2.4	1.3	2.0
Cc1cc(NC(=O)C(C)SCC(=O)O)no1 (stereo unspecified)	i	0.69	-14	-4	1.8	-7.3	0.1
O=C(/C=C/Nc1ccccc1C(F)(F)F)c1ccco1	/	0.68	-3	-14	-5.2	-4.3	-1.5
COc1ccccc1C(=O)Nc1nc(C)cc(C)n1	i	0.69	1	-7	6.7	4.4	4.3
CN(C(=S)Nc1ccccc1)c1ccccc1	/	0.71	-5	2	-0.2	1.6	-0.5
COc1ccccc1-c1c(C)nn2c(N3CCN(Cc4ccccc4)CC3)cc(C)nc12	i	0.77	-3	7	-1.9	2.3	-2.1
COc1ccc(-c2oc3ccccc3c2C#Cc2cncn2C)cc1	i	/	-4	10	/	2.0	1.3

Profiles, looked up by structure. Values in the order: FGF22 binding | E coli growth | ALR inh | Beta2AR agonist | UCH37 inh | HNF4A DNA FP | LANA-H2A inh
CC1CCCCN1C(=O)CSc1nnc(-c2cccnc2)n1C1CCCCC1 (stereo unspecified) is entered as / | 0.69 | -5 | -8 | 0.9 | -1.6 | -1.8
O=C(CN(C(=O)CCC(=O)Nc1ccccn1)c1ccc(F)cc1)NCc1ccc(F)cc1 is entered as i | 0.71 | 0 | -2 | 3.9 | -2.5 | 3.6
CC(=O)N(C)c1ccc(N=Nc2ccc3ncccc3c2)cc1 is entered as i | 0.68 | / | -13 | 15 | 0.8 | /
S=c1nc(C2CCCCC2)[nH]c2ccccc12 is entered as i | 0.66 | -1 | 3 | 3.6 | 5.3 | 5.1
COc1ccccc1-c1c(C)nn2c(N3CCN(Cc4ccccc4)CC3)cc(C)nc12 is entered as i | 0.77 | -3 | 7 | -1.9 | 2.3 | -2.1

Next entries.
Structure	FGF22 binding	E coli growth	ALR inh	Beta2AR agonist	UCH37 inh	HNF4A DNA FP	LANA-H2A inh
C=CCn1c(O)c(C2=c3ccccc3=NC2=O)s/c1=N/c1nccs1	i	/	/	-11	/	2.1	-2.4
CCOC(=O)C1CCN(C(=O)COc2ccc(Cl)cc2C)CC1	/	0.69	-1	10	4.6	1.1	-0.4
CCN(CC)C(=O)c1oc2ccc(S(=O)(=O)N3CCCCCC3)cc2c1C	i	0.68	-2	-3	7.5	-1.5	0.7
COC(=O)c1cc(CSc2nc3ccccc3c(=O)n2C)oc1C	i	0.67	-14	4	0.3	-2.4	0.4
O=C(CSc1nnc(-c2ccccc2)c2ccccc12)NCCN1C(=O)CSC1=O	i	0.63	/	-4	1.8	3.3	/
COc1cccc(OCCOc2cccc(/C=N/n3cnnc3)c2)c1	/	/	-9	0	/	-1.0	0.6
CCCc1cc(-c2n[nH]c(C(=O)OCC)c2-c2cscn2)c(O)cc1O	i	0.68	28	20	6.8	-0.1	-4.8
C/C(=N\NS(=O)(=O)c1cccc([N+](=O)[O-])c1)c1cc2ccccc2o1	/	/	44	3	/	3.5	-2.0
Cc1ccc(-c2cc(C(=O)Nc3cc(C(=O)O)ccc3C)c3ccccc3n2)cc1	i	0.7	5	12	0.2	1.1	5.9
Nc1ccccc1-c1n[nH]c(=S)s1	/	0.67	/	-6	-257	-0.9	/
Cn1nc(CC(=O)Nc2ccc3c(c2)OCCO3)c2ccccc2c1=O	/	0.69	/	6	2.3	-0.4	-5.9
CCOC(=O)c1cc(-c2csc(-c3ccc(C(C)(C)C)cc3)n2)on1	i	0.68	1	-6	5.4	2.7	1.8
CNc1snc(C)c1C(=O)OC(C)C(=O)NCc1ccccc1 (stereo unspecified)	i	0.68	/	-8	3.8	0.1	/
N=C1CCCN1CC(=O)c1cccs1	/	0.71	/	3	5.0	0.0	0.6
CS(=O)(=O)N(CC(=O)N1CCC(C(N)=O)CC1)c1ccc(Cl)c(C(F)(F)F)c1	/	0.71	-3	3	0.9	3.3	1.1
CCc1cc(SC#N)ccc1N	i	0.71	/	1	13	2.3	0.0
CC(C)=CCc1cc([C@@H]2COc3c(ccc4c3C=CC(C)(C)O4)C2)c(O)cc1O	i	0.65	-20	-8	1.7	0.1	4.1
CC(C)NC(=S)NN=C1CCCCCCCCCCC1	i	0.71	15	4	2.2	0.0	-0.9
Cc1cc(/C=N/NC(=O)c2c(Br)cnn2C)c(C)n1-c1cccc(Br)c1	i	/	5	0	/	0.5	-0.5
NNC(=O)Cc1csc(-c2ccccc2)n1	i	0.65	20	3	6.0	2.2	-5.4
CCOC(=O)/C=C1\SCC(=O)N1CC(=O)N1CCOCC1	i	0.7	-5	3	2.8	4.4	-3.5
CCOC(=O)c1c(C)n(C)c2cc(-c3ccc(F)cc3)c(O)cc12	/	0.7	/	-1	-2.1	2.7	1.6
NC(=O)c1ccc(NC(=O)COC(=O)C2CC3C=CC2C3)cc1 (stereo unspecified)	i	0.6	1	0	0.0	23	0.7
CCCc1cc(=O)[nH]c(SCC(=O)N2N=C(c3ccc(Cl)cc3)CC2c2ccco2)n1 (stereo unspecified)	i	0.65	-20	0	-3.3	-2.2	3.4
O=C(O)CCN(Cc1ccccc1)S(=O)(=O)c1c(Cl)cccc1Cl	/	0.68	/	0	3.2	-5.1	-2.1
C#CC(C)(CC)NC(=O)Cn1nnc(-c2ccc(S(C)(=O)=O)cc2)n1 (stereo unspecified)	/	0.7	0	12	4.3	0.9	2.4
CC(Nc1cc(=O)n(C)c(=O)n1C)c1ccccc1 (stereo unspecified)	/	0.73	-15	4	2.6	1.4	2.0
COc1ccc(CCNC(=O)C/C(C)=N/NC(=O)c2ccc([N+](=O)[O-])cc2Cl)cc1OC	i	/	-4	-5	/	4.0	0.8
COc1ccc(-n2nc3c(N)n[nH]c3cc2=O)cc1	i	0.7	?	1	7.5	-1.7	1.0
COC(=O)Cc1c(C)c2ccc(OC3CCCCC3=O)c(C)c2oc1=O (stereo unspecified)	i	0.67	-17	6	-304	-2.2	2.7
CCCNS(=O)(=O)c1ccc(OCC(=O)NCc2ccc3c(c2)OCO3)cc1	/	0.71	1	4	1.5	0.8	4.8
COC(=O)c1cccc(NC(=O)/C(=C\c2ccccc2)NC(=O)c2ccccc2Cl)c1	/	0.7	-1	1	3.9	0.2	-3.0
CC(=O)c1sc(N/N=C\c2ccc(N(C)C)cc2)nc1C	i	/	41	14	/	15	-1.7
COc1ccc(N2CCN(S(=O)(=O)CC34CCC(CC3=O)C4(C)C)CC2)cc1 (stereo unspecified)	i	0.69	28	3	4.8	1.6	0.0
C/C(=N\NC(=O)C1CC1(c1ccccc1)c1ccccc1)c1cccc([N+](=O)[O-])c1 (stereo unspecified)	i	/	-1	6	/	4.3	-1.1
O=C(Cn1cnc2ccccc21)Nc1cccc(S(=O)(=O)N2CCCC2)c1	/	0.67	19	-1	-1.5	3.2	-4.4
C/C(=N\NC(=O)CCC(=O)NCc1ccccc1)c1ccco1	i	/	-8	-1	/	1.7	0.3
CCCCC(CCC(=O)Nc1nccs1)C(=O)O (stereo unspecified)	/	0.73	-21	-8	0.7	-3.0	2.0
Cc1ccccc1C(=O)NC1CCN(CC(=O)Nc2ccc3c(c2)OCO3)CC1	i	0.7	-10	-1	1.6	0.1	-3.5
Cn1cc(Cl)c(C(=O)NNC(=S)NC2CCCCC2)n1	/	0.69	71	-2	3.5	-3.2	-3.1

Only part of the results is shown; the hit share may differ from the screen's.
